Screens as filed in PubChem BioAssay.
T cruzi inh – T. cruzi replication inhibition; T. cruzi beta-gal in NIH3T3, luminescence, 90 h; inhibition, % (no concentration beside the values); 300,000 tested, 1.4% active;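 active = mean inhibition across valid replicates above about 55%, limit read from the data; inconclusive = mean below that limit but half or more replicates reach it; inactive = mean below it, under half of replicates reach it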;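 also: signal also drops with host cell toxicity which is not excluded here; 0% = plate median of DMSO wells and 100% = zero luminescence signal; higher percent means less beta-gal luminescence so fewer parasites; stock transfer was 50 nL into about 50 µL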
Beta apoptosis – blocks beta cell apoptosis; protection from apoptosis, % (concentration not given with the values); INS-1E cytokine-induced death, ATP luminescence, 48 h; percent of positive-control rescue, neutral wells zero; 300,000 tested, 0.8% active;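 active = all replicates at 75% or more, or half of them and the mean; inconclusive = half reach 75% but not the mean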;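 also: 0% = cytokine-treated negative control wells and 100% = positive control rescue; higher means more ATP so stronger rescue from cytokine killing; wells of about 40 µL received 100 nL stock; the first replicate is given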
RanGTP-Impb inh – disruptors of Ran-importin-beta complex formation – biochemical, FRET, CFP-Ran, YFP-importin-beta, homogeneous, primary screen; cell-free CFP-Ran/YFP-importin-beta FRET ratio; inhibition, % (test concentration not listed); 300,000 tested, 1.1% active; AID 2216;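 active = most replicates above 15%; inconclusive = exactly half above 15%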;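 also: 0% = DMSO wells and 100% = Ran loaded with GDP instead of GTP; wells of about 40 µL received 100 nL stock; the first replicate is given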
Bfl-1 A1 inh – inhibitors of the anti-apoptotic protein A1, read as caspase activation. MEF A1-2A-BIM cells, Caspase-Glo 3/7 luminescence, 3 h; percent of clofoctol response, vehicle zero. caspase activation, % (concentration not given with the values). 330,000 tested, 0.066% active. AID 2462;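 active = over half of replicate activation scores above 10%, or exactly half above 10 with the replicate mean above 10; inconclusive = replicate mean below 10 yet half the replicates above 10; inactive = over half of replicates below 10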;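 also: wells of about 30 µL received 50 nL stock; many hits fall short of the cut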
Vif A3G – inhibitors of Vif binding to APOBEC3G peptide, primary screen, biochemical, TR-FRET, GST-Vif 1-94, biotin-A3G peptide, dose response retest (AID 1117319) | inhibition, %; hits with a dose series show IC50 in µM | TR-FRET GST-Vif / biotin-A3G peptide binding; higher % means a stronger effect; test concentration not given here; strong numbers were not always called active | 260,000 tested, 0.57% active;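 active = above the screen mean plus three standard deviations and confirmed in dose response; inconclusive = results disagree or hit not tested in dose response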;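 also: Vif residues 1-94 fused to GST binding biotinylated APOBEC3G peptide 110-148; 0% = full assay without inhibitor and 100% = GST in place of GST-Vif; retest series ran down from 100 µM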
MLL AF4-AF9 inh – MLL-AF4/AF9 protein interaction inhibition | 350,000 tested, 0.47% active | inhibition, % at 10 µM | AlphaScreen, biotin-AF4 peptide binding to FLAG-AF9;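 active = every replicate reaching a set inhibition limit, whatever the replicate mean, cut at about 25% in these data; inconclusive = mean inhibition reaches that limit but some replicates miss it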;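 also: 0% = plate neutral control median and 100% = total signal loss; the record names both 10 and 1 µM as test concentration; the first replicate is given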
Target sequence (P42568 whole entry, looked up): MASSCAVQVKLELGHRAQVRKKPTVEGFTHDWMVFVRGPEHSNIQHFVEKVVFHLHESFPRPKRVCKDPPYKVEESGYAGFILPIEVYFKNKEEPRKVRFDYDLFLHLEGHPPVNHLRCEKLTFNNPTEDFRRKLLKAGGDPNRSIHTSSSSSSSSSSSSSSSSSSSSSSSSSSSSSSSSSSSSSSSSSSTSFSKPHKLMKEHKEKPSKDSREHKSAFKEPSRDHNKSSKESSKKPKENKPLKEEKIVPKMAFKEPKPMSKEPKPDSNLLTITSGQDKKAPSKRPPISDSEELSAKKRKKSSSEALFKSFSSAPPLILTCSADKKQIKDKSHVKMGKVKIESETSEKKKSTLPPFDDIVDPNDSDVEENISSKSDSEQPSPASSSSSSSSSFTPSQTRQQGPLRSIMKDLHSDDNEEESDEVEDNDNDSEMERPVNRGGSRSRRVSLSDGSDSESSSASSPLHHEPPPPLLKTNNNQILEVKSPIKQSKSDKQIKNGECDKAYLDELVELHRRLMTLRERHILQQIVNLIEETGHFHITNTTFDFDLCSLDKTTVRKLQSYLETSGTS
Ecoli rRNA inh – inhibitors of bacterial rRNA selective over humanized ribosomes. 350,000 tested, 1.6% active. GFP signal change (wild-type ribosome), % (test concentration not listed). E. coli WT GFP vs humanized-ribosome RFP mutants, fluorescence, 24 h; hits give low values; DMSO median 0, no signal -100;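 active = significant combined selectivity score with lowered wild-type GFP, culture density cut under 30%, mutant RFP and density less affected; inactive = any of these conditions unmet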; also: one replicate is shown; some compounds called inactive have numbers as strong as hits
Calb FLC – affects C. albicans growth with fluconazole | 300,000 tested, 0.57% active | C. albicans CaCi-2 (fluconazole-resistant clinical isolate) + fluconazole, Alamar Blue growth, 48 h | growth inhibition, % (test concentration not listed);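 active = most replicates above 75%; inconclusive = exactly half above 75%; inactive = most below 75%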;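 also: all wells also contain fluconazole at 8 µg/ml as a sub-toxic cotreatment; 0% = median of DMSO wells and 100% = median of geldanamycin control wells; wells of about 8 µL received 7.5 nL stock; the first replicate is given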
Ecoli rRNA inh OD600 – further read-out of Ecoli rRNA inh, marked with its call; OD600 change, %; measured here: OD600 growth;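 optical density of the mix in the first replicate; 0 = DMSO median and -100 = no signal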
Ecoli rRNA inh RFP – further read-out of Ecoli rRNA inh, marked with its call; RFP signal change, %; measured here: RFP humanized mutant strains;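 first replicate; 0 = DMSO median and -100 = no signal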
Numbers without * were called inactive; ? = inconclusive; . = not tested or not shown; & = joins results of further samples.

SMILES | T cruzi inh | Beta apoptosis | RanGTP-Impb inh | Bfl-1 A1 inh | Vif A3G | MLL AF4-AF9 inh | Ecoli rRNA inh | Ecoli rRNA inh OD600 | Ecoli rRNA inh RFP | Calb FLC
Cc1cccc(OCC(=O)Nc2cc(S(=O)(=O)N3CCCCC3)ccc2N2CCN(C)CC2)c1 | 50.3 | 2.1 | 0.5 | -0.2 | -0.2% | 12.8 | -28.4 | -51.9 | 14.8 | -9.1
O=C(Nc1ccc(N2CCOCC2)cc1)c1cccc(S(=O)(=O)N2CCCCCC2)c1 | 6.7 | 2.8 | -2.0 | 0.7 | 7.7% | 0.0 | 19.9 | 14.3 | 0.3 | -13.5
COc1ccc(C(=O)N(Cc2nc(-c3ccc(C)cc3)no2)C(C)C)cc1OC | -1.2 | -1.5 | -4.1 | 0.4 | 9.8% | -1.2 | -4.0 | -3.9 | 4.6 | -10.3
Cc1ccc(/C=C/C(=O)Nc2sc(C)c(C)c2C(=O)OC(C)C)o1 | 2.3 | -4.9 | -6.5 | 3.4 | . | . | . | . | . | -3.8
COc1ccc(NS(=O)(=O)c2cccc(C(=O)NCC(c3ccco3)N3CCCCC3)c2)cc1 (stereo unspecified) | -20.2 | -0.7 | -1.9 | -0.5 | -4.8% | 2.1 | -0.4 | -2.1 | 9.2 | -7.4
O=C(c1ccc(OC2CCN(Cc3ccccn3)CC2)cc1)N1CCCCCC1 | 0.9 | -1.9 | -2.4 | 1.3 | 5.4% | -4.3 | 4.1 | 3.5 | -1.4 | -5.9
O=S(=O)(Nc1ccc(N=Nc2ccccc2)cc1)c1ccccc1 | 11.3 | 7.9 | 2.1 | 0.8 | 11.9% | . | . | . | . | -2.4
CC1(C)Cc2c(c(N3CCOCC3)nc3sc(C(=O)Nc4ccccc4)c(N)c23)CO1 | 11.9 | -0.2 | -1.3 | 1.4 | . | -0.5 | 1.1 | -1.3 | 0.0 | -0.8
O=C1CC(C(=O)Nc2ccc(Cl)cc2)n2ncnc2N1 (stereo unspecified) | -8.8 | -5.4 | 1.3 | 1.4 | . | -0.8 | 12.9 | 17.1 | 2.4 | 8.2
COC(=O)c1ccc(CSc2ccc3nnc(-c4ccccc4)n3n2)o1 | 8.0 | -6.7 | -1.2 | -0.1 | 0.9% | . | . | . | . | -6.3
O=C(CNC(=O)c1cccc(Cl)c1)NCC(c1cccs1)N1CCOCC1 (stereo unspecified) | . | 0.5 | . | 1.6 | -8.7% | -1.1 | . | . | . | .
CCc1nn2c(=O)cc(COC(=O)c3ccc(SC)cc3OC)nc2s1 | . | 0.3 | . | 0.0 | -3.8% | 0.4 | -10.3 | -11.1 | -4.0 | .
COc1ccc(/C=C/c2c(-c3ccc(OC)cc3)sc3ccc(N4CCOCC4)cc23)cc1 | 17.8 | 3.6 | 4.1 | 0.1 | . | . | . | . | . | -3.3
Cc1ccc2c(C(=O)N3CCN(c4ccccc4)CC3)cc(-c3cccnc3)nc2c1C | 38.8 | 5.4 | -2.2 | 4.1 | . | -0.6 | 8.4 | 4.9 | 7.0 | 47.2
COc1ccc(S(=O)(=O)n2nc(-n3c(C)ccc3C)c3c(F)cccc32)cc1OC | 24.6 | 0.4 | -3.2 | 0.0 | 4.6% | 8.3 | . | . | . | -0.9
C#CCOCCOCCOCCNc1nc(N2CCN(C(=O)C([C@@H](C)O)n3cc([C@@H](N)CCCCN)nn3)CC2)nc(N2CCN(C(=O)[C@H](CO)n3cc([C@@H](N)C(C)C)nn3)CC2)n1 (stereo partly specified) | . | -5.8 | . | 0.3 | . | 54.4* | 6.5 | 1.0 | 5.1 | .
Oc1ccccc1-c1nc(NCCN2CCOCC2)c2ccccc2n1 | 31.2 | 8.5 | 3.6 | 0.2 | 7.8% | . | . | . | . | 57.2
NC(=O)COc1ccc2oc(-c3ccccc3)cc(=O)c2c1 | -4.3 | . | -0.3 | . | 3.5% | 1.6 | 10.8 | 5.0 | -0.7 | 14.0
COC(=O)/C(=N/Nc1ccccc1OC)N1CCCc2ccccc21 | -17.0 | 0.3 | 3.6 | 0.4 | 14.5% | 13.5 | -11.3 | 3.9 | 0.1 | 39.7
Cc1cc(C)n2cc(CSc3ncn[nH]3)nc2n1 | -5.2 | -8.8 | 5.4 | 0.2 | 31.2% | -1.7 | 10.8 | 6.2 | -1.3 | -5.6
CCOc1cc(/C=C2\SC(=Nc3ccccc3)N(c3ccccc3)C2=O)ccc1OCC(=O)O | 10.3 | 7.0 | 3.8 | -0.2 | -0.2% | 6.5 | -30.5* | -20.9* | -11.0* | 44.7
COc1ccc(Oc2nccc(OC)c2C#N)cc1 | -9.7 | -8.2 | 0.1 | -0.3 | 1.0% | -3.0 | 5.9 | 0.5 | 5.4 | 4.0
CCOC(=O)c1ccc(NC(=O)CC2S/C(=N/N=C/c3c[nH]c4ccccc34)NC2=O)cc1 (stereo unspecified) | 3.0 | -6.0 | -2.3 | -0.4 | . | . | . | . | . | 22.0
Cn1c(SCCS(=O)(=O)c2ccc(Cl)cc2)nnc1-c1ccccc1 | -0.3 | -2.0 | 1.4 | 1.0 | -0.5% | . | . | . | . | 6.6
CC(C)(C)NC(=O)c1cccc(NC(=O)CSc2ccc(Cl)cc2)c1 | 0.7 | 3.2 | 1.4 | -0.4 | 26.1% | . | . | . | . | -1.7

The results go on.
SMILES | T cruzi inh | Beta apoptosis | RanGTP-Impb inh | Bfl-1 A1 inh | Vif A3G | MLL AF4-AF9 inh | Ecoli rRNA inh | Ecoli rRNA inh OD600 | Ecoli rRNA inh RFP | Calb FLC
CC1=C(C(=O)Nc2ccccc2)C(c2ccncc2)n2nnnc2N1 (stereo unspecified) | -5.3 | -3.7 | -0.6 | 0.0 | -3.0% | . | . | . | . | 8.6
Cc1ccc(S(=O)(=O)c2c(N)n(NC(=O)c3ccccc3C)c3nc4ccccc4nc23)cc1 | 0.7 | -7.8 | 1.1 | -0.6 | -7.0% | . | . | . | . | -5.6
CC1(c2ccc3c(c2)OCCO3)NC(=O)N(CC(=O)Nc2ccccc2SCC#N)C1=O (stereo unspecified) | . | -3.6 | . | 0.0 | -6.6% | 3.8 | 9.0 | 7.4 | 2.6 | .
COc1ccc(NC(=O)CS(=O)c2ccc(Br)cc2)cc1 (stereo unspecified) | -20.9 | -3.1 | -2.7 | 0.3 | . | -3.0 | 2.8 | 5.1 | -1.5 | 0.4
Cc1ccc(CN2C(=O)C(CC(C)C)Nc3ncnc(N4CCN(c5ccccc5)CC4)c32)cc1 (stereo unspecified) | . | -1.8 | . | 0.1 | . | 2.9&3.9 | 8.3&9.9 | 11.9&20.6 | 8.3&13.1 | .
CC[C@]12c3[nH]c4ccccc4c3CCN1C(=O)C(CC(=O)NCc1cccc(C(F)(F)F)c1)C[C@@H]2C(=O)N1CCN(C(=O)c2ccco2)CC1 (stereo partly specified) | . | 2.1 | . | -0.1 | -1.9% | -0.8 | 2.2 | -4.8 | 5.1 | .
CCCCOc1ccc(-c2nnn(CC(=O)Nc3ncc(CC(=O)OCC)s3)n2)cc1 | -2.7 | -1.9 | 7.1 | 0.1 | 5.3%&-5.5% | . | . | . | . | ?
O=CNCCc1nc2ccccc2n1CCc1ccccc1 | -6.6 | -1.6 | 2.1 | 1.6 | . | 4.5 | -2.1 | -2.3 | -4.4 | -1.7
Cc1cc(C(=O)NNC(=O)c2cccc(Cl)c2)no1 | -4.6 | . | -0.7 | 0.5 | 21.1% | -1.0 | 7.5 | -4.6 | 2.5 | 3.4
CCCCNC(=O)COC(=O)c1cc(S(=O)(=O)N2CCCCCC2)ccc1OC | 15.6 | 2.9 | 3.5 | -0.5 | 0.0% | . | . | . | . | 1.0
Oc1ccccc1/C=N/Nc1ccnc(SCc2ccccc2)n1 | . | -2.9 | . | -0.3 | -0.7% | -6.0 | 1.4 | 1.3 | 3.3 | .
CCc1ccccc1Nc1nc2ccccc2[nH]1 | 15.3 | 13.0 | 3.3 | -1.6 | . | 1.3 | . | . | . | -18.8
CCN(CCNC(=O)C1CCCN(S(=O)(=O)c2cnc[nH]2)C1)c1ccccc1 (stereo unspecified) | -0.4 | 0.8 | 3.0 | -0.2 | 5.7% | -1.5 | -3.8 | 1.5 | 3.9 | -1.9
FC(F)(F)c1nnc2c(Sc3ccccn3)nc3ccccc3n12 | -25.2 | -16.8 | 8.5 | -0.6 | -5.8% | . | . | . | . | 12.4
Cc1ccc(-n2cc(CNCCc3ncc(C)[nH]3)c(-c3ccc(F)cc3)n2)cc1 | 34.6 | -2.4 | 3.3 | 0.5 | -6.9% | 28.0* | -49.6 | -81.9 | -8.4 | -34.9
COc1ccccc1OC(C)C(=O)Nc1ccccc1C(=O)NCC1CCCO1 (stereo unspecified) | 2.3 | 0.9 | -3.3 | -0.3 | . | -1.5 | 0.2 | -10.9 | 0.1 | 10.2
O=C(O)c1c2c(nc3ccc(S(=O)(=O)N4CCC(C(=O)NC5CCCC5)CC4)cc13)CCCCC2 | -3.1 | -2.6 | ? | 0.1 | -4.7% | 2.3 | 6.8 | 11.5 | -0.7 | -5.5
OC(COc1ccc(Cl)cc1)CN1CCC(Cc2ccccc2)CC1 (stereo unspecified) | 29.5 | . | -2.7 | 1.0 | . | 7.1 | -22.2 | -20.2 | 17.8 | 1.9
S=C(NCCCN1CCOCC1)NC1CCCC1 | -0.8 | -2.0 | . | 0.4 | . | -4.1 | 8.5 | 28.0 | 12.9 | -10.0
O=C(NCCCn1ccnc1)/C(=C/c1ccc(F)cc1)NC(=O)c1ccccc1 | 2.0 | -0.7 | -4.0 | 0.0 | ? | 1.8 | 3.3 | 4.4 | -3.5 | 4.5
O=c1oc2c(CN3CCOCC3)c(O)ccc2c2ccccc12 | -3.8 | 4.9 | -5.5 | -1.6 | -1.3% | . | -6.3 | -15.6 | 0.1 | 1.6
Cc1ccc(OC(=O)c2ccc(C)c(C)c2)cn1 | -9.2 | -0.5 | 0.1 | -1.9 | -6.5% | . | . | . | . | 2.4
CN(C)S(=O)(=O)c1ccc(C(=O)Nc2ccc3c(c2)CCC3)cc1 | -9.1 | 9.0 | 0.4 | 0.4 | -9.4% | -1.1 | -22.4 | -18.5 | 2.0 | 3.1
C/C(CCc1ccc2c(c1)OCO2)=N\N=C1\NC(=O)CC(C(=O)Nc2ccccc2F)S1 (stereo unspecified) | -0.2 | 2.4 | -2.4 | -0.1 | 6.0% | -2.9 | 10.7 | 0.2 | 1.4 | -12.4
O=C(O)CCCCCNc1nc2ncn(Cc3ccccc3)c2c(=O)[nH]1 | -21.7 | -2.2 | 3.9 | -0.5 | 4.8% | -32.7 | 5.5 | 4.7 | 0.4 | -13.8
Cc1cc(C)nc(-n2nc(C)c3c(C(F)(F)F)cc(=O)[nH]c32)n1 | 1.9 | -6.0 | 4.9 | -0.2 | -10.3% | . | 16.9 | 12.0 | 9.5 | 12.2

An excerpt, so the mix of outcomes need not match the whole.
